# Autofluor counter = compound fluorescence in toxin protease inhibitor counterscreen. compound autofluorescence counterscreen, microsphere flow cytometry; active compounds read high. fluorescence intensity (test concentration not listed). actives 3.1% (n = 360,000);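 active = at least 3 SD above the mean of all compounds, about 16000 in these data; inconclusive = too few beads counted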;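 note: 100 nL of 1 mM stock went into each well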
# Mtb hypoxia rep = inhibitors of hypoxia-regulated fluorescent reporter in Mycobacterium tuberculosis; M. tuberculosis hypoxia-regulated fluorescent reporter, fluorescence; fluorescence inhibition, % (no concentration beside the values); actives 0.1% (n = 300,000);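 active = 35 to 45% if threefold the growth effect, above 45% if 1.5-fold the growth effect; inactive = the rest, general growth blockers included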;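 note: wells of about 50 µL received 100 nL stock; 0% = vehicle wells and 100% = reference inhibitor wells; whole bacteria with a GFP reporter of the hypoxia response; strong numbers were not always called active; many hits fall short of the cut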
# Sa RN4220 lethal = kills Staphylococcus aureus RN4220 | S. aureus RN4220 growth, OD600, 16 h | inhibition, % (no concentration beside the values) | actives 0.33% (n = 330,000) | AID 1259311;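 active = z-score of -3 or lower and OD600 up to 0.18 on both plates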;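 note: plate controls were untreated cells for no effect and reference antibiotic for full effect; stock transfer was 100 nL into about 80 µL; one replicate is shown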
# BJeLR lethal = BJeLR cell viability loss. BJeLR (HRASV12) viability, CellTiter-Glo ATP luminescence, 48 h; reference of the scale not given here. inhibition, % (no concentration beside the values). actives 0.17% (n = 300,000). AID 1554;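 active = replicate mean above 50%; inconclusive = above 50% but judged a plate artefact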;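 note: 50 nL library stock added to about 25 µL; numbers are from one replicate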
# PrP 5UTR inh = suppresses PrP 5' UTR mRNA reporter expression. actives 0.35% (n = 340,000). inhibition, % (no concentration beside the values). AID 488862. cell-based PrP 5' UTR mRNA reporter, plate reader;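 active = every replicate at 50% or more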;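 note: 0 = median of the neutral control wells; tested in H4 reporter cells; numbers are from one replicate; inactives centre near -14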
# ugtP null kill = growth inhibition of S. aureus ugtP deletion strain; growth inhibition, % (test concentration not listed); actives 0.54% (n = 330,000); S. aureus RN4220 ugtP deletion, OD600 growth, 16 h; some inactives read as strong as hits; AID 1259309;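 active = z-score under -3 and OD600 up to 0.15 on both plates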;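 note: plate controls were untreated wells for no effect and antibiotic for full effect; wells of about 80 µL received 100 nL stock; the first replicate is given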
# Mtb hypoxia rep growth = recorded beside Mtb hypoxia rep, whose call it bears; growth inhibition, %; measured here: M. tuberculosis growth (absorbance);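 0% = vehicle and 100% = reference antibiotic; read after six days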
# An asterisk follows results filed as active; u = inconclusive; x = not tested or not shown. Rows are unselected. Share with any hit: about 3.9%.
SMILES,Autofluor counter,Mtb hypoxia rep,Mtb hypoxia rep growth,Sa RN4220 lethal,BJeLR lethal,PrP 5UTR inh,ugtP null kill
O=C(Nc1nncs1)c1ccccc1NS(=O)(=O)c1cccs1,2313,9,0,8.6,-3,-7,-5
CC(=O)OCCn1c(=O)c2cc3c(=O)n(CCOC(C)=O)c(=O)c3cc2c1=O,4909,9,9,2.0,7,10,-3
Cc1ccc(C(=O)O)cc1NC(=O)CSc1ncnc2sc3c(c12)CCC3,u,12,5,8.2,0,-7,14
O=C(NCc1ccc(Cl)cc1)C(=O)NCC1OCCN1S(=O)(=O)c1cc(F)ccc1F (stereo unspecified),6202,5,1,1.3,-1,-11,-1
CCOc1ccccc1Nc1nnc(SCC(=O)Nc2cccc(S(=O)(=O)NC3=NCCCCC3)c2)s1,10240,-6,3,-0.1,-14,-21,-10
COc1ccc(-c2cc(C(=O)N3CCN(Cc4ccccc4)CC3)no2)cc1OC,11223,3,2,2.4,-6,-18,6
COc1ccccc1N1CCN(C(=O)CCS(=O)(=O)c2ccc3c(c2)oc(=O)n3C)CC1,6251,16,3,5.5,-5,-2,7
O=C(NCc1ccccc1)c1c[nH]c2ccc(S(=O)(=O)Nc3ccc4c(c3)OCCO4)cc2c1=O,2452,1,5,2.2,-7,-2,19
CN(C)C(=O)Oc1ccc([N+](=O)[O-])cc1,2269,-2,3,4.7,3,-20,5
CCOc1ccccc1-c1noc(CCCC(=O)NC2CCCCC2)n1,5925,10,0,-1.6,-5,-25,6
CCC(C)CCN1C(Nc2ccccc2)=NC[C@@H]1Cc1ccccc1 (stereo partly specified),4314,x,x,x,1,-13,x
CCOC(=O)c1c(-c2ccc(F)cc2)csc1NC(=O)C1CC=CCC1C(=O)O (stereo unspecified),3067,-5,8,5.2,5,0,-4
Cc1ccc(NC(=O)COC(=O)c2ccc(C)c(S(=O)(=O)N3CCOCC3)c2)cc1,5354,-2,0,5.7,x,-11,-5
CC(Cc1ccccc1)=NNC(=O)CNC(=O)c1ccc(Br)cc1,x,1,-7,3.5,x,x,8
CN(CC(=O)Nc1ccc(Cl)cc1)C(=O)CNC(=O)c1ccc2c(c1)OCO2,4977,5,1,2.7,1,-8,1

# An excerpt from above in order of SMILES length, highest first:
SMILES,Autofluor counter,Mtb hypoxia rep,Mtb hypoxia rep growth,Sa RN4220 lethal,BJeLR lethal,PrP 5UTR inh,ugtP null kill
COc1ccccc1N1CCN(C(=O)CCS(=O)(=O)c2ccc3c(c2)oc(=O)n3C)CC1,6251,16,3,5.5,-5,-2,7
CN(CC(=O)Nc1ccc(Cl)cc1)C(=O)CNC(=O)c1ccc2c(c1)OCO2,4977,5,1,2.7,1,-8,1
CC(Cc1ccccc1)=NNC(=O)CNC(=O)c1ccc(Br)cc1,x,1,-7,3.5,x,x,8

# Continued:
SMILES,Autofluor counter,Mtb hypoxia rep,Mtb hypoxia rep growth,Sa RN4220 lethal,BJeLR lethal,PrP 5UTR inh,ugtP null kill
C=CCn1c(CCNC(=O)c2ccco2)nc2ccccc21,3329,4,-1,2.9,-8,-18,3
O=C1c2ccccc2C(=O)N1CC(O)COCc1ccccc1 (stereo unspecified),9177,-1,-7,1.6,-1,-17,4
C/C(=N\NC(=O)COc1ccc(C(C)(C)C)cc1)c1cc2ccccc2o1,2568,x,x,x,3,-60,x
COc1ccccc1N(Cc1ccccc1)S(=O)(=O)c1cccc(C(=O)Nc2cccc(C)n2)c1,6575,4,1,5.2,-2,-13,-2
O=C(Nc1ccccc1)c1ccc(Br)c(S(=O)(=O)Nc2cccnc2)c1,2126,6,0,1.5,-3,-21,13
CCOC(=O)COc1ccc2c(C#N)c3ccccn3c2c1,3493,16,12,14,x,-7,-1
CC1(C)Cc2cccc(OCC(=O)Nc3nccs3)c2O1,3899,0,5,1.3,1,-24,-3
O=C(COc1ccc2ccccc2c1)N1CCN(Cc2ccncc2)CC1,2320,x,x,7.2,-6,-16,9
COc1cccc(-c2ccc(C#N)c(SCC(=O)NCc3ccco3)n2)c1,3076,9,5,8.6,0,-20,-1
O=C(ON=Cc1ccc(N2CCOCC2)c([N+](=O)[O-])c1)c1ccc(F)cc1,x,5,6,-11,x,x,-4
CCN(CC)CCC(=O)N1c2ccccc2CCc2ccc(NC(=O)OC)cc21,3857,-6,13,1.2,10,9,2
COc1cccc(-n2c(/C=C/c3ccc(O)c(O)c3)nc3ccccc3c2=O)c1,2861,-5,6,31,-10,-9,-16
CC(C)c1nc(N2CCN(C(=O)c3ccccc3)CC2)c(C#N)c2c1COC(C)(C)C2,3696,10,4,1.9,-6,-10,0
NS(=O)(=O)c1ccc(NC(=S)Nc2ccn(Cc3cccc4ccccc34)n2)cc1,3791,2,7,-5.4,7,4,14
CCOc1ccc(-n2ccc(=O)c(C(=O)O)n2)cc1,3124,-6,-8,-1.0,9,x,3
COC(=O)c1ccc(C2C(C(=O)c3cc4ccccc4o3)=C(O)C(=O)N2CCN2CCOCC2)cc1 (stereo unspecified),5631,2,-10,0.5,0,-25,3
Cn1cccc1C(=O)NNC(=O)COc1ccccc1F,6597,7,3,6.1,-4,-47,7
CCN(CC)CCN1C(=O)c2oc3ccccc3c(=O)c2C1c1ccc(F)cc1 (stereo unspecified),21092*,7,11,7.7,-23,-21,0
CCC(=O)NCc1ccc(-c2nc3ncccc3o2)cc1,4089,-2,13,2.7,1,-8,-2
COc1cccc(-c2ccc(NC(=O)C3CCCN(Cc4cc(C)[nH]n4)C3)cc2)c1 (stereo unspecified),6451,x,x,x,5,-5,x
C=CCN1C(=O)/C(=C\c2ccco2)C(C(=O)OC)=C1C,2061,10,10,7.1,-3,-27,1
COc1ccc(C2CC(c3ccccc3Br)=NN2c2ccc(S(N)(=O)=O)cc2)cc1 (stereo unspecified),3739,-3,4,-11,x,-14,-17
Cc1cccc(OCC(=O)NNC(=O)c2cccs2)c1,5152,-2,10,2.9,-1,-16,2
CCOc1ccc(NC(=O)Nc2cc(OCC(F)(F)F)cc(OCC(F)(F)F)c2)cc1,2047,4,1,-4.1,6,-20,-42
Cc1cccc(CC(C)NC(=O)c2oc3c(F)cccc3c2C)n1 (stereo unspecified),3931,4,11,4.4,0,-7,-1
COc1cc(/C=C/C(=O)OCC(=O)Nc2ccc(C)cc2[N+](=O)[O-])ccc1O,4256,x,x,x,8,-10,x
CCOC(=O)CC(NC(=O)c1cccc2c1C(=O)N(Cc1cccnc1)C2)c1ccc(OC(C)C)cc1 (stereo unspecified),2036,-14,-1,-6.4,2,-11,56
O=C(c1cccs1)N1CCN(Cc2nc3ccccc3c(=O)[nH]2)CC1,4784,x,x,0.8,5,-32,-2
CCOc1ccc(N/C=C/C(=O)c2cc(OC)c(OC)c(OC)c2)cc1,3933,-9,2,-1.6,12,-105,-1
O=C(Cc1ccc(Cl)cc1)N/N=C/c1ccccc1,2138,x,x,x,-8,-7,x
FC(F)(F)c1cccc(Cc2noc(CN3CCCC3)n2)c1,4394,0,8,1.5,-1,20,-3
O=C1/C(=C\c2ccco2)CCC/C1=C\c1ccco1,8241,x,x,4.5,3,-57,4
FC(F)(F)c1ccccc1C=NN1CCN(Cc2ccccc2)CC1,x,7,5,-2.8,x,x,93*
CSc1sc(-c2ccnc(SCCS(C)(=O)=O)n2)c(-c2ccccc2)c1C#N,6199,2,-1,2.1,-3,-21,9
COc1ccc(NC(=O)COC(=O)Cc2ccc(-c3ccccc3)cc2)c(OC)c1,2481,8,0,4.5,2,-8,15
CCOc1ccc(NC(=O)C2CCN(C(=O)NCc3ccccc3)CC2)cc1,22864*,5,3,5.9,4,-24,7
CN(C(=O)COC(=O)c1ccccc1Nc1ccccc1)c1c(N)n(Cc2ccccc2)c(=O)[nH]c1=O,5615,-7,9,-1.3,-3,-14,-14
CC(C(=O)N1CCC(C(N)=O)CC1)N(c1ccc(Oc2ccccc2)cc1)S(C)(=O)=O (stereo unspecified),20200*,1,2,1.2,1,-3,3
CCN(CC)S(=O)(=O)c1cccc(C(=O)Nc2ccccc2C(=O)N2CCOCC2)c1,3235,4,-3,-15,-10,-15,-7
Cc1cc(NC(=O)COC(=O)[C@H](Cc2ccccc2)NC(=O)c2ccco2)no1,3762,12,4,4.4,x,4,0
CCN(CC)c1ccc(S(=O)(=O)N2CCOCC2)cc1NC(=O)CSc1ccccc1,5464,7,-10,14,-8,-13,2
O=C(N/N=C/c1ccc(O)cc1)c1ccncc1,3884,x,x,x,-4,-9,x
CCOC(=O)C1C2COc3ccc(Br)cc3C2N2C(=O)CN(Cc3ccco3)C(=O)[C@@]12C (stereo partly specified),x,10,5,4.1,x,x,-17
CCCCC(=O)N1CCN(c2nc3ccc(Br)cc3s2)CC1,5654,4,-2,0.4,6,-17,4
CC(C)NS(=O)(=O)c1ccc(OCC(=O)N2CCN(Cc3ccccc3)CC2)c(Cl)c1,2652,x,x,0.6,-3,-11,5
O=C(CSc1nc(-c2ccccc2)cc(C(F)(F)F)n1)NCc1cccs1,2518,-3,4,6.0,-4,-34,15
O=[N+]([O-])C1=CC=C2C(=NC3(CCCCC3)N2O)C1=NC1CCCCC1,8351,6,4,0.7,4,-1,0
COc1ccc(C(=O)NNC(=O)c2ccc3ccccc3c2O)cc1,4412,22,7,1.6,10,-43,2
O=C(Cc1ccccc1)O/N=C1\CCCc2ccccc21,3289,x,x,x,-2,-10,x
CCOP(=O)(c1ccc(N(C)C)cc1)C(O)c1ccccc1F (stereo unspecified),3698,-3,-2,-1.1,5,-16,4
O=C(NC1CC1)C1=C[C@H](c2ccc(C(F)(F)F)cc2)C[C@H](OCc2ccc(CO)cc2)O1,4156,x,x,x,1,2,x
COc1ccc(S(=O)(=O)N2CCOCC2)cc1NC(=O)COC(=O)C1=COCCO1,4837,5,5,3.6,-9,-20,11
CCc1ccc(C2=NN(C(=O)CCC(=O)O)C(c3cccs3)C2)cc1 (stereo unspecified),3126,0,3,4.8,-16,-14,8
COc1ccc(CNC(=O)CN2C(=O)COc3ccc(S(=O)(=O)N4CCOCC4)cc32)cc1,6996,10,2,0.8,-7,-1,2
Cc1cc(C(=O)NNC(=O)CCN2CCN(c3ccccc3)CC2)c2ccccc2n1,4375,-3,16,-3.7,11,-27,3
OCCNCC1(O)C2CC3CC(C2)CC1C3 (stereo unspecified),10522,0,3,0.5,3,-4,0
CC(=O)c1ccc(S(=O)(=O)N2CCc3ccccc3C2)cc1,x,11,1,8.3,-3,-16,10
Cc1ccc2cc(CN(Cc3nnnn3Cc3ccco3)CC3CCCO3)c(=O)[nH]c2c1C (stereo unspecified),3473,7,5,4.4,9,-8,-8
Cc1ccc(Cl)cc1NC(=O)c1ocnc1C,10829,6,17,-1.9,-4,x,-3

# Quoted from the entries so far for reference:
SMILES,Autofluor counter,Mtb hypoxia rep,Mtb hypoxia rep growth,Sa RN4220 lethal,BJeLR lethal,PrP 5UTR inh,ugtP null kill
O=C(CSc1nc(-c2ccccc2)cc(C(F)(F)F)n1)NCc1cccs1,2518,-3,4,6.0,-4,-34,15
O=[N+]([O-])C1=CC=C2C(=NC3(CCCCC3)N2O)C1=NC1CCCCC1,8351,6,4,0.7,4,-1,0
COc1ccc(C(=O)NNC(=O)c2ccc3ccccc3c2O)cc1,4412,22,7,1.6,10,-43,2
O=C(Cc1ccccc1)O/N=C1\CCCc2ccccc21,3289,x,x,x,-2,-10,x
CCOP(=O)(c1ccc(N(C)C)cc1)C(O)c1ccccc1F (stereo unspecified),3698,-3,-2,-1.1,5,-16,4
O=C(NC1CC1)C1=C[C@H](c2ccc(C(F)(F)F)cc2)C[C@H](OCc2ccc(CO)cc2)O1,4156,x,x,x,1,2,x

# High-throughput results deposited in PubChem BioAssay by several laboratories.
